# Screening results as filed in PubChem BioAssay.
# TRPML1 inh: blocks the human TRPML1 channel. activity change, negative = inhibition, % (test concentration not listed). TRPML1-inducible cells, Ca2+ dye fluorescence, FDSS; active compounds read low; inhibition of EC80 agonist-evoked calcium signal. Q9GZU1. AID 624415. actives 0.02% (n = 390,000); in the data active means activity change below about -50%; inconclusive means about -30% to -50%; inactive means above about -30%;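 also: stimulus is agonist 54-4 at its EC80 concentration; % is scaled to controls: 0 for no effect and ±100 for the full control effect; compound concentration not given in the record; the text of the record puts the active cut at -80%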
#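 TRPML1-DL cells, Tet-induced overnight (~16 h, 37 °C) at 1,500 cells/well, were loaded with Ca8 no-wash dye plus quencher for 45-90 min at room temperature. Compounds were pinned during FDSS kinetic reading; agonist 54-4 at EC80 (4 uM final) then added.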
# gsp antag: antagonists of gsp mutant (McCune-Albright syndrome) | Potency, µM (highest dose often 76.9 µM), for the others: at the top dose activity change, negative = inhibition, usual class: inhibitors | actives 0.4% (n = 340,000) | AID 624288 | gsp-mutant cells, cAMP HTRF, 30 min; control for the full effect not named in the record; active = falling curve of any shape with a large fitted effect; inconclusive = falling curve, mostly with a smaller effect; inactive = flat or rising curve; cell line not stated here;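 also: intracellular cAMP measured with PDE inhibitor Ro 20-1724 present during compound exposure; potency is read from the fitted curve at half-maximal effect; % is scaled to controls: 0 for no effect and ±100 for the full control effect; nearly all actives have a fitted effect of over 65% in size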
#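 Cells in G418 medium, seeded 16-24 h, 37C; buffer exchange to DPBS + 1 mM CaCl2, 0.5 mM MgCl2, 0.05% BSA; cpds in DMSO + […] (300 uM stock), 30 min 37C; HTRF cAMP detection.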
# ClpP mod: qHTS Assay for Activators of ClpP | ATP-dependent Clp protease proteolytic subunit (Bacillus subtilis (strain 168)), P80244 | purified B. subtilis ClpP, FRET peptide cleavage, 20 min | Potency, µM (top dose mostly 57.5 µM), for the others: at the highest dose activity change, negative = active | actives 1.9% (n = 340,000) | AID 651965, 2013; active = well fitted falling curve with a large enough effect; inconclusive = small, poorly fitted or top-dose-only effect; inactive = no such curve, though single readings can be large or run the other way; also: potency is read from the fitted curve at half-maximal effect; the source files actives as falling curves though it sought activators and does not explain the sign; nearly all actives have a fitted effect of over 65% in size; many hits overshoot -100%
# Target sequence (P80244 whole entry, looked up): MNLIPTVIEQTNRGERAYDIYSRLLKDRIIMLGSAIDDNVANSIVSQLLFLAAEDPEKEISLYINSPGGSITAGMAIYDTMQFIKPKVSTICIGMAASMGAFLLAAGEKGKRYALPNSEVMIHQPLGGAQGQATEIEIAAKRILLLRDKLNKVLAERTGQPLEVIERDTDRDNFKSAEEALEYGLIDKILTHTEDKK
#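 Purified B. subtilis ClpP, 10 microg/mL final in Tris/HCl pH8 with KCl, BSA, glycerol and Tween-20, cleaved an Abz/nitrotyrosine-quenched decapeptide. Fluorescence (ex 320, em 430) was read at 0 and 20 min at room temperature. Delta was normalized to 5.8 microM ADEP and DMSO/no-enzyme controls.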
# gsp ag: agonists of gsp mutant (McCune-Albright syndrome); gsp mutant cells, cAMP HTRF, 30 min; control for the full effect not named in the record; actives 0.13% (n = 340,000); Potency, µM (series often up to 76.9 µM), inactives show top-dose activation (cAMP increase), hits mostly activators; active = well fitted activation curve with a large enough effect; inconclusive = small, poorly fitted or top-dose-only effect, or another doubt; inactive = no such curve, though single readings can be large or run the other way; cell line not stated here;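 also: phosphodiesterase inhibitor Ro 20-1724 added with compounds to block cAMP breakdown; potency is read from the fitted curve at half-maximal effect; nearly all actives have a fitted effect of over 60% in size; about a fifth of the inactives were tested at one dose only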
#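 Cells in DMEM/10% FBS with G418 were pretreated with compounds in DMSO plus […] (300 uM stock) for 30 min at 37C. cAMP was measured by HTRF (cAMP-d2 plus anti-cAMP antibody-K) after 30 min at room temperature.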
# Menin MLL FP FL: displaces fluorescein MLL peptide from human menin. Fluorescence polarization, fluorescein-MLL peptide displacement from menin. FP activity change, % at 61.4 µM. 290,000 tested, under 10 active. AID 1766; inconclusive = falling polarisation curve, or a change in total fluorescence; inactive = total fluorescence flat and polarisation flat or rising; no compound was filed as active; the % refers to the polarisation; negative = inhibition;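 also: % of control where 0% means no effect; inhibitors lower the polarisation; unlabelled MLL peptide was the positive control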
# Sfp PPTase inh: inhibitors of Bacillus subtilis Sfp phosphopantetheinyl transferase; actives 3.5% (n = 310,000); Biochemical Sfp PPTase activity, qHTS; AID 1490; Q9F4F7; Potency, µM, inactives show max response, negative = inhibition, hits mostly inhibitors; active = well fitted inhibition curve with a large enough effect; inconclusive = small, poorly fitted or top-dose-only effect, or another doubt; inactive = no such curve, though single readings can be large or run the other way;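 also: the enzyme is Sfp with the accession as filed and its product quenches rhodamine fluorescence; potency is read from the fitted curve at half-maximal effect; 0% = enzyme reaction without inhibitor and -100% = no enzyme wells; top concentration of the series not given in the record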
#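 With Hepes-Na pH 7.6 buffer containing 10 mM MgCl2, Sfp (15 nM) modified BHQ-2-YbbR (12.5 uM) using rhodamine-CoA (5 uM). Two reads 30 minutes apart at 525/598 nm yielded each well's rate.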
# TRPV1 PAM: enhances activation of the human vanilloid receptor TRPV1. Q8NER1. TRPV1-expressing cells, Fluo-8 calcium influx, capsaicin EC20 potentiation; host cell line not named in the record; control for the full effect not named in the record. potentiation, % at 8.33 µM. actives 0.02% (n = 320,000). AID 540277; active means potentiation above 80%; inconclusive means 30% to 80%; inactive means below 30%; also: 0% is about no effect
# Target sequence (Q8NER1 whole entry, looked up): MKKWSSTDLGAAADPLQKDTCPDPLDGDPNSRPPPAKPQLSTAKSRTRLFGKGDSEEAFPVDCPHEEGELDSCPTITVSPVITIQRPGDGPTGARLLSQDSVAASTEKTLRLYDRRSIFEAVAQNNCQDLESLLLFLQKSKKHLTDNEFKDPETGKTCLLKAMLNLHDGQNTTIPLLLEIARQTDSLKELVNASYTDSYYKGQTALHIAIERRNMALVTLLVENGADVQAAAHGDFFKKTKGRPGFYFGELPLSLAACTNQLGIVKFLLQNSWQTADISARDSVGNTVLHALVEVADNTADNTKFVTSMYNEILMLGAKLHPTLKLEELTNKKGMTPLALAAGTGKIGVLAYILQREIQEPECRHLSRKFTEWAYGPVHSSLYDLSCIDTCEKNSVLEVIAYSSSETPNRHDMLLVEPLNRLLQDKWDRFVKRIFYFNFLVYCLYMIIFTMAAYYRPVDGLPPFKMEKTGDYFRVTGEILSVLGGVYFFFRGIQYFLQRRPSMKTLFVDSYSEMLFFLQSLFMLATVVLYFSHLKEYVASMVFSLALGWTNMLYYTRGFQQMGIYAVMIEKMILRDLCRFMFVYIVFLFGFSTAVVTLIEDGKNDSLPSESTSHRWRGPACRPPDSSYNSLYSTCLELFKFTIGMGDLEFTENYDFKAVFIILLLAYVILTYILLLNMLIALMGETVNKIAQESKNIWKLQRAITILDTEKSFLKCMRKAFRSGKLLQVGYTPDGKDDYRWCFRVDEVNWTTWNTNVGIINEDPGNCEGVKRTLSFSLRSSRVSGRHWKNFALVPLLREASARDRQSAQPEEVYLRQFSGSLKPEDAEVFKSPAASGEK
#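 TRPV1-expressing cells were cultured overnight at 35.5C and loaded with Fluo-8 calcium dye for 40 to 90 min at room temperature. After a 10 s baseline, compound was added and calcium influx was read kinetically for 3 min (ex 480/em 520 nm).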
# Active calls of the source: *; ? = inconclusive; . = no result given; & = joins results of further samples; [ ] = remark or other dose.
structure	TRPML1 inh	gsp antag	ClpP mod	gsp ag	Menin MLL FP FL	Sfp PPTase inh	TRPV1 PAM
Clc1ccc(-c2cn(-c3ccc(Cl)cc3)c3[n+]2CCCCC3)cc1	7	-4%	0.3%	7%[15.4 µM]	-0.7	0%	-7
Cc1ccc(C(C(=O)NCCc2ccccc2)N(C(=O)c2csnn2)C2CC2)o1 (stereo not drawn)	14	3%	-5.0%	-39%[inhibitor]	0.7	1%	3
NC(=O)c1ccc(NC(=O)CNc2cc(S(=O)(=O)N3CCOCC3)ccc2N2CCCC2)cc1	0	5%	-2.6%	?	.	.	.
COc1cccc(NC(=S)N2CCCC2c2ccc(OC)c(OC)c2)c1 (stereo not drawn)	8	-4%	.	21%	-2.3	8%	5
COc1ccccc1N1CCCSC1=Nc1ccccc1	5	.	0.7%	?	.	.	.
Cc1cc(Nc2ccccc2)n(-c2ccc(Br)cc2)n1	67	-1%	-0.4%	-38%[inhibitor]	1.0	2%	-2
Cc1ccc([C@H]2C[C@@H](n3cc(COC(=O)c4ccccc4)nn3)[C@H](O)CN2CC2CCCCC2)cc1	23	.	-1.3%	?	.	.	.
Cc1ccc(C)c(OCC(=O)N2CCN(c3ncccn3)CC2)c1	-13	-11%	-23%	-2%	.	.	-7
COC(=O)c1ccc(CSc2nnc(-c3ccc4c(c3)OCO4)n2-c2ccccc2)o1	3	-22%	-2.2%	1%	2.5	-14%	-26
CCOC(=O)Cc1csc(NC(=O)NC2(C(F)(F)F)Oc3ccc(Cl)cc3O2)n1 (stereo not drawn)	15	7%	-26%	-4%	0.2	56µM*	24
O=C(COc1ccc(-c2ccccc2)cc1)NNC(=O)Nc1ccc(F)cc1F	10	16%	32µM*	-7%	.	-13%	1
CCOc1ccc(S(=O)(=O)N2CCCC(C(=O)NCc3ccncc3)C2)cc1C (stereo not drawn)	-7	-8%	.	0%[15.4 µM]	1.2	11%	-6
COc1ccc(C(=O)OC(C)C(=O)NC(C)CCc2ccccc2)cc1[N+](=O)[O-] (stereo not drawn)	-3	-4%	.	-23%[15.4 µM]	-9.6	-2%	-1
O=[N+]([O-])CC(=Nc1ccc(Cl)cc1)N/N=C\c1oc(O)c2ccccc12	6	-7%	0.6%	-7%[15.4 µM]	7.0	-13%	4
Nc1c(Cl)c(Cl)nc(C(=O)N/N=C/c2ccco2)c1Cl	13	5%	3.0%	-8%	1.5	18%	18
CC(C)c1nnc(NC(=O)c2ccc3ccccc3c2)s1	-4	-7%	-24%	1%	.	-14%	-11
O=C(COc1ccccc1F)Nc1ccc(S(=O)(=O)NCc2ccco2)cc1	13	0%	-0.1%	-3%	1.1	-4%	2
CC(N=C1NS(=O)(=O)c2ccccc21)C(=O)OCC(=O)N(C)C1CCS(=O)(=O)C1 (stereo not drawn)	-6	24%	-0.5%	-2%	.	.	-5
COc1cc(SC)ccc1C(=O)Nc1ccc(C)cc1C	14	-11%	38%	?	3.9	-12%	24
CCC1Oc2ccc(C)cc2N(CC(=O)N(Cc2ccc(C)o2)C2CC(C)(C)NC(C)(C)C2)C1=O (stereo not drawn)	51	-9%	1.3%	-27%	1.2	1%	4
CCOc1ccc(N2C(=O)CC(N3CCN(c4ccc([N+](=O)[O-])cc4)CC3)C2=O)cc1 (stereo not drawn)	25	-2%	-0.1%	7%	4.2	-13%	6
COc1ccc(NC(NC(=O)c2ccc(OC)cc2)C(Cl)(Cl)Cl)cc1 (stereo not drawn)	14	-27%	-2.3%	1%[15.4 µM]	3.6	14%	4
CN(Cc1c(F)cccc1Cl)C(=O)c1ccc(NC(=O)CC2SC(N3CCCC3)=NC2=O)cc1 (stereo not drawn)	14	2%	-1.1%	-26%	.	.	2
Cc1csc2nc(CNS(=O)(=O)c3cccnc3)cn12	-2	5%	-0.5%	-20%	.	.	.
COc1ccc(-n2c(SCC#N)nc3ccccc3c2=O)cc1	-13	-11%	-0.2%	?	0.2	14%	22
C#CCOCCOCCOCCNc1nc(N2CCN(C(=O)[C@H]([C@@H](C)CC)n3cc(CCC(=O)O)nn3)CC2)nc(N2CCN(C(=O)[C@H](CCCCN)n3cc(CCC(=O)O)nn3)CC2)n1	-9	7%	0.3%	.	.	.	.
CC1(C)CC(=O)C(C=NCC2CCNCC2)=C(O)C1	-27	7%	-1.1%	-30%	5.5	33%[activator]	24
Cc1ccc(C)c(-n2ccnc2SCC(N)=O)c1	-15	15%	-0.3%	6%[15.4 µM]	-0.1	20%	8
Cc1cc(C(=O)OCC(=O)Nc2c(Cl)cccc2Cl)c(C)o1	1	0%	-3.1%	-45%[inhibitor]	.	.	.
COc1ccc(OC)c2c1sc(=NC(=O)c1cccc(N3C(=O)CCC3=O)c1)n2C	3	6%	82%	4%	3.1	-6%	12
CN(C)S(=O)(=O)c1cccc(NC(=O)COC(=O)/C=C/c2ccco2)c1	-6	-5%	-3.0%	0%	6.3	-19%	3
Cc1cccc(C(=O)NC(C(=O)Nc2cccc(S(=O)(=O)N3CCCC3)c2)C(C)C)c1 (stereo not drawn)	12	-13%	1.2%	-27%	.	.	12
COc1cccc(-c2nc(N)nc(SC)c2C#N)c1	-7	0%	-3.0%	-2%[15.4 µM]	1.5	17%	12
CCOC(=O)c1sc(NC(=O)c2cc(S(=O)(=O)N3CCOCC3)ccc2C)nc1C	16	-19%	-0.3%	0%	3.6	9%	6
COc1cc(C(=O)COC(=O)c2ccco2)cc(OC)c1OC	-3	7%	-1.3%	2%[15.4 µM]	.	.	.
O=C(NNC(=O)c1ccccc1Br)c1ccncc1	1	16%	0.3%	1%	0.6	9%	-1
COc1ccc(/C=C/C(=O)OCC(=O)Nc2ccc3c(c2)OCO3)cc1	18	3%	-16%	4%	.	.	-10
COc1ccccc1N(CC(=O)NCC1CCCO1)C(=O)Cn1nnc(-c2cccs2)n1 (stereo not drawn)	-2	-6%	.	-13%[15.4 µM]	1.6	12%	2
CCNc1nc(NCC)n2c(SCC(=O)Nc3cccc(Cl)c3)nnc2n1	-19	-3%	-2.3%	22%	.	.	14
O=C1COc2ccc(S(=O)(=O)N3CCc4ccccc43)cc2N1	.	-2%	0.6%	16%	-0.5	7%	7
COc1ccc(CN(C(=O)c2cccc(OC)c2)C2CCS(=O)(=O)C2)cc1 (stereo not drawn)	-16	-3%	.	-4%	0.5	10%	-12
CCOc1ccc(C(CC(=O)O)NS(=O)(=O)c2ccc(C)cc2)cc1OC (stereo not drawn)	15	-5%	-0.9%	-13%	-4.7	4%	0
Cc1ccc(NC(=O)CSCC(=O)N2CCOCC2)cc1	11	-13%	4.5%	-22%	3.5	24%	3
CCC(C)Nc1c2c(nc3c(-c4ccccc4)c(C)nn13)CCC2 (stereo not drawn)	-10	?	28µM*	18%	1.9	-18%	-5
Cc1cc(=O)nc2c3ccccc3n(CC(=O)NC(C)c3ccc4c(c3)OCCO4)n12 (stereo not drawn)	0	4%	-3.1%	26%	1.3	13%	3
Cc1ccc(-c2cnn(-c3cccc(C(F)(F)F)c3)c2N)cc1	18	-3%	-0.4%	-3%	0.8	13%	-24
C/C(Cc1ccccc1)=N\NC(=O)CNC(=O)c1ccccc1O	35	0%	.	-5%[15.4 µM]	-1.4	-3%	-6
Cc1cc(C)n2nc(C(=O)OCC(=O)NNC(=O)c3ccc(Cl)cc3)nc2n1	13	2%	-5.1%	3%	.	.	-8
Cc1nnc(NC(=O)c2ccc(S(=O)(=O)N3CC(C)CC(C)C3)cc2)o1 (stereo not drawn)	-6	-5%	.	-34%[15.4 µM]	2.3	16%	-1
Cc1nnc(-c2ccco2)c2cn(-c3cccc(Br)c3)nc12	-8	-21%	.	-15%[15.4 µM]	8.0	-10%	-2
CCCN(C(=O)c1cc(S(=O)(=O)N2CCCCCC2)ccc1OC)C1CCS(=O)(=O)C1 (stereo not drawn)	8	2%	-21%	-55%[inhibitor]	.	.	-2
COC(=O)c1ccc(C23CC4(C2)[C@H](CN(Cc2ccc(C(F)(F)F)cc2)[C@@H]4c2ccccc2)C3c2ccc(Cl)nc2)cc1 (stereo partly drawn)	-21	6%	-12%	.	9.6&3.3	13%&6%	-24
CC1CCc2sc(C(=O)NC3CCCCC3)cc2C1 (stereo not drawn)	8	-6%	0.0%	0%	.	.	-15
COCCCn1c(SCC(=O)N2CCc3ccccc32)nnc1-c1ccoc1C	-7	-8%	1.5%	-5%	.	.	.
Cc1ccc(S(=O)(=O)CCC(=O)NCc2ccccc2Cl)cc1	-25	10%	.	-5%[15.4 µM]	7.7	-11%	-16
CC(C)Oc1ccc(S(=O)(=O)N2CCOCC2)cc1NC(=O)c1nn(C)c(=O)c2ccccc12	7	-1%	-0.4%	2%	.	.	.
CCOc1ccc2oc(C(=O)Nc3nccs3)c(C)c2c1	-14	5%	3.6%	?	.	.	.
O=C(NCCN1CCN(c2ccccc2)CC1)c1cccn2c(=O)c3ccccc3nc12	-19	11%	3.5%	?	1.2	7%	13
CC1(C)Cc2c(c(N3CCOCC3)nc3sc4c(NCC5CCCO5)nnnc4c23)CS1 (stereo not drawn)	5	-13%	.	-8%	2.7	-7%	-7
CCOc1ccc(NC(=O)c2ccc(NC(=O)C3CCCO3)cc2)cc1 (stereo not drawn)	9	7%	.	10%[15.4 µM]	-4.9	12%	-2
CCO[C@H]1OC(C(=O)O)=C[C@@H](c2ccc3c(c2)OCO3)[C@@H]1CCCO	-7	6%	0.1%	.	-0.4	7%	13
